Screening data deposited in PubChem by Broad Institute.
Myc binder: c-Myc (human) binding; calls only; P01106; AID 624141; hit rate 1.5% among 17,000; small molecule microarray, His-c-Myc binding, anti-His fluorescence;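 active means spot fluorescence over background with P-value below 7% in all four replicate spots, showing protein binding; compounds were printed on slides so no solution concentration is given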;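 further: score is binary with 100 for all four spots passing and 0 otherwise; about 2 pmol printed per array spot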
STAT3 binder: binders of human STAT3; P40763; Small molecule microarray, His-STAT3 binding, anti-His fluorescence; calls only; hit rate 0.2% among 17,000;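 active means compounds whose four printed spots each show fluorescence over background unusually high for their array block, chance value under 7%; compounds were printed on slides so no solution concentration is given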;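 further: about 2 pmol printed per array spot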
Target sequence (P40763 whole entry, looked up): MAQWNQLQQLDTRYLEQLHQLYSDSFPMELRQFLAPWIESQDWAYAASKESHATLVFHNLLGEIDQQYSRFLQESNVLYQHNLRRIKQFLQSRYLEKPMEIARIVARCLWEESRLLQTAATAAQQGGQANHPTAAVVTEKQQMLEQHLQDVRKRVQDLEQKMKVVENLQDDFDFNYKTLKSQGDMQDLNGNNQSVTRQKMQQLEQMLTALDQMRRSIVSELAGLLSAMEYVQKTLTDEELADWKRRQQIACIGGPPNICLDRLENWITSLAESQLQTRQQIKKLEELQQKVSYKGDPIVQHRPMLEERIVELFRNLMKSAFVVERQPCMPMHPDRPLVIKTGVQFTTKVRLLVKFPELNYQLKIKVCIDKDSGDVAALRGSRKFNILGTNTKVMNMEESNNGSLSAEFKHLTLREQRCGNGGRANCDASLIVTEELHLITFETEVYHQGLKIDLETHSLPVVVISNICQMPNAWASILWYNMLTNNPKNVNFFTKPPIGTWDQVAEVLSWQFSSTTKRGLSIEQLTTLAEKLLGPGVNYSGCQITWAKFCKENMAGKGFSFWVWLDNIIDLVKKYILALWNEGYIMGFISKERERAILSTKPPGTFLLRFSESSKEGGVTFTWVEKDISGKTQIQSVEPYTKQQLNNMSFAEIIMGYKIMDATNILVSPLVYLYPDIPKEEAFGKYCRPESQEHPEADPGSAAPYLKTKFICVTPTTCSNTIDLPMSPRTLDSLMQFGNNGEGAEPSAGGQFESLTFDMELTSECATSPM
ID4 binder: ID4 (human) binding; small molecule microarray, Flag-ID4 binding, fluorescence F/B; calls only; hit rate 1.2% among 31,000; AID 624137;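 active means spot signal over background at p below 0.07 in all four prints; compounds were printed on slides so no solution concentration is given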;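 further: a binder raises fluorescence above local background on the spot; about 2 pmol printed per array spot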
Target sequence (P47928 whole entry, looked up): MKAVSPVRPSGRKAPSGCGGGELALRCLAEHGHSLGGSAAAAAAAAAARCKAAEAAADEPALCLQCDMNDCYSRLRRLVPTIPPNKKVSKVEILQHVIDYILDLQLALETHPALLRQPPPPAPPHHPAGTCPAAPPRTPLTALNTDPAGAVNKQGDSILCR
mut p53 SMM: binders of human mutant p53; small molecule microarray binding, anti-GST fluorescence; calls only; hit rate 0.4% among 17,000; AID 624136;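 active means compounds whose four printed spots each glow above background more than chance allows, each with a p-value under 7%; compounds were printed on slides so no solution concentration is given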;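 further: about 2 pmol printed per array spot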
Calls only; i = inactive; / = not tested or not shown; + = active, no number. These rows are one share of the data; count on the stated rates, not on these rows.

SMILES,Myc binder,STAT3 binder,ID4 binder,mut p53 SMM
CNC[C@H]1OCCCC[C@H](C)Oc2ccc(NC(=O)Nc3cccc4ccccc34)cc2C(=O)N([C@H](C)CO)C[C@@H]1C,i,i,i,i
Cc1ccc(-c2nc3ccccc3o2)cc1NC(=O)COc1ccccc1C,i,i,i,i
C[C@@H]1CN([C@H](C)CO)C(=O)c2cc(NS(C)(=O)=O)ccc2O[C@H]1CN(C)C(=O)Nc1ccc2c(c1)OCO2,i,i,i,i
Cc1noc(C)c1S(=O)(=O)Nc1cccc2c1O[C@H](CN(C)Cc1ccc(C(F)(F)F)cc1)[C@H](C)CN([C@@H](C)CO)C2=O,i,i,i,i
CNC[C@H]1OCCCC[C@@H](C)Oc2ccc(NC(=O)c3ccncc3)cc2C(=O)N([C@H](C)CO)C[C@@H]1C,i,i,i,i
C[C@@H]1CN([C@@H](C)CO)C(=O)c2cc(NS(=O)(=O)c3cccs3)ccc2O[C@H]1CN(C)S(=O)(=O)c1cccs1,i,i,/,i
C[C@@H]1CN([C@@H](C)CO)C(=O)c2cc(NC(=O)Nc3ccc(F)cc3)ccc2O[C@@H](C)CCCCO[C@H]1CN(C)C(=O)c1ccccc1,i,i,i,i
C=C(C(=O)O[C@H]1C/C=C(/C)C[C@H](O)[C@H]2[C@H](C)C(=O)O[C@@H]2/C=C\1C)[C@@H]1CCC(=C)[C@@H]2C[C@H](O[C@@H]3O[C@H](CO)[C@@H](O)[C@H](O)[C@H]3O)C(=C)[C@@H]2C1,i,i,/,i
COc1cc(O)c(C(C)=O)c(CC(=O)O)c1,i,i,/,i
C[C@H](CO)N1C[C@H](C)[C@H](CN(C)C(=O)CCC(F)(F)F)OCCCC[C@H](C)Oc2ccc(NC(=O)c3ccncc3)cc2C1=O,+,i,i,i
CC(C)(C)[C@@H]1C=C(C(=O)N2CCN(Cc3ccc4c(c3)OCO4)CC2)O[C@H](OCc2ccc(CO)cc2)C1,i,i,i,i
CS(=O)(=O)Nc1ccc(C(=O)NCc2ccco2)cc1,i,i,i,i
C[C@@H]1CCCCO[C@H](CN(C)C(=O)c2ccccc2)[C@H](C)CN([C@@H](C)CO)C(=O)c2cc(NC(=O)Cc3ccccc3)ccc2O1,i,i,/,i
C[C@H]1CN([C@@H](C)CO)C(=O)CCCn2cc(nn2)CO[C@@H]1CN(C)S(=O)(=O)c1ccc(Cl)cc1,i,i,i,i
Cc1noc(C)c1NC(=O)N(C)C[C@@H]1Oc2c(NS(C)(=O)=O)cccc2C(=O)N([C@H](C)CO)C[C@H]1C,i,i,i,i
C[C@@H]1CN([C@H](C)CO)C(=O)Cc2cc(NC(=O)c3ccncc3)ccc2O[C@H]1CN(C)C(=O)NC1CCCCC1,i,i,i,i
C[C@@H]1CN([C@H](C)CO)C(=O)c2cccc(NS(=O)(=O)c3cn(C)cn3)c2O[C@H]1CN(C)S(=O)(=O)c1cn(C)cn1,i,i,i,i
CS(=O)(=O)N(CC(=O)Nc1c(F)cccc1F)c1cccc([N+](=O)[O-])c1,i,i,i,i
C[C@@H]1CN([C@H](C)CO)C(=O)Cc2cc(NC(=O)Cc3ccccc3)ccc2O[C@@H]1CN(C)C(=O)NC1CCCCC1,i,i,i,i
COc1ccc(S(=O)(=O)Nc2cccc3c2O[C@@H](CN(C)S(=O)(=O)c2cccs2)[C@@H](C)CN([C@@H](C)CO)C3=O)cc1,i,i,i,i
Cc1noc(C)c1S(=O)(=O)N(C)C[C@@H]1OCCCC[C@@H](C)Oc2ccc(NS(=O)(=O)c3ccccc3)cc2C(=O)N([C@H](C)CO)C[C@H]1C,i,i,/,i
COc1ccc(S(=O)(=O)Nc2cccc3c2O[C@H](CN(C)S(=O)(=O)c2ccc(F)cc2)[C@H](C)CN([C@@H](C)CO)C3=O)cc1,i,i,i,i
Cc1noc(C)c1NC(=O)N(C)C[C@H]1Oc2c(NC(=O)Nc3ccc(C(F)(F)F)cc3)cccc2C(=O)N([C@@H](C)CO)C[C@@H]1C,i,i,i,i
C[C@@H]1CN([C@H](C)CO)C(=O)CCCn2cc(nn2)CO[C@@H]1CN(C)C(=O)Nc1ccnc(N2CCOCC2)c1,i,i,i,i

Reprinted at random: four records from the list, in no set order.
SMILES,Myc binder,STAT3 binder,ID4 binder,mut p53 SMM
C[C@@H]1CN([C@H](C)CO)C(=O)c2cccc(NS(=O)(=O)c3cn(C)cn3)c2O[C@H]1CN(C)S(=O)(=O)c1cn(C)cn1,i,i,i,i
C[C@@H]1CN([C@H](C)CO)C(=O)CCCn2cc(nn2)CO[C@@H]1CN(C)C(=O)Nc1ccnc(N2CCOCC2)c1,i,i,i,i
COc1ccc(S(=O)(=O)Nc2cccc3c2O[C@@H](CN(C)S(=O)(=O)c2cccs2)[C@@H](C)CN([C@@H](C)CO)C3=O)cc1,i,i,i,i
Cc1noc(C)c1S(=O)(=O)N(C)C[C@@H]1OCCCC[C@@H](C)Oc2ccc(NS(=O)(=O)c3ccccc3)cc2C(=O)N([C@H](C)CO)C[C@H]1C,i,i,/,i

More compounds:
SMILES,Myc binder,STAT3 binder,ID4 binder,mut p53 SMM
c1ccc(OCCCc2nc(-c3ccccn3)no2)cc1,i,i,i,i
C[C@H](CO)N1C[C@H](C)[C@@H](CN(C)Cc2ccccc2)Oc2c(NS(=O)(=O)c3cn(C)cn3)cccc2C1=O,i,i,i,i
COc1ccc(NC(=O)N(C)C[C@@H]2Oc3c(NS(=O)(=O)c4cccs4)cccc3C(=O)N([C@@H](C)CO)C[C@H]2C)cc1,i,i,i,i
CCCN(CCC)CCc1cccc2c1CC(=O)N2,i,i,i,i
NC(=O)CSc1nc2ccccc2[nH]1,i,i,i,i
CCc1cc2c(=O)c(-c3nc(C)cs3)c(CCC(=O)O)oc2cc1O,i,i,i,i
COc1ccc(NC(=O)Nc2ccc3c(c2)CC(=O)N([C@H](C)CO)C[C@H](C)[C@H](CN(C)C)O3)cc1,i,i,i,i
COc1ccc(CN2C(=O)c3cccc4cccc(c34)C2=O)cc1S(=O)(=O)N1CCCCCC1,i,i,i,i
C[C@@H]1CN([C@@H](C)CO)C(=O)c2cccc(NC(=O)Nc3ccc(F)cc3)c2O[C@H]1CN(C)S(=O)(=O)c1ccc(Cl)cc1,i,i,i,i
C[C@@H]1CN([C@H](C)CO)C(=O)c2cc(NC(=O)Nc3ccccc3)ccc2O[C@H]1CN(C)C,i,i,/,i
CCC[C@@H](O)[C@H](O)[C@@H]1CC(OC)=CC(=O)O1,i,i,i,i
C=C1CC[C@@H]2[C@](C)(CO)[C@H](O)CC[C@@]2(C)[C@@H]1CC(O)C1=CCOC1=O (stereo partly drawn),i,i,i,i
C[C@@H]1CCCCO[C@@H](CN(C)C(=O)Cc2ccccc2)[C@@H](C)CN([C@H](C)CO)C(=O)c2cc(NC(=O)c3ccncc3)ccc2O1,i,i,i,i
CC(C)NC(=O)N(C)C[C@H]1Oc2c(cccc2N(C)C)C(=O)N([C@@H](C)CO)C[C@@H]1C,i,i,i,i
C=CCN1C(=O)C(O)(CC(=O)c2ccc(C)o2)c2ccccc21 (stereo not drawn),i,i,i,i
CSc1cccc(NC(=O)CNS(=O)(=O)c2c(C)cc(C)cc2C)c1,i,i,i,i
CC(=O)NCCc1nc2ccccc2n1Cc1ccccc1,i,i,i,i
C[C@H]1CCCCO[C@H](CN(C)C)[C@@H](C)CN([C@@H](C)CO)C(=O)c2cc(NC(=O)Nc3ccc4c(c3)OCO4)ccc2O1,i,i,i,i
CCO/N=[N+](\[O-])N1CCCC1,i,i,/,i
COc1ccc(CN(C)C[C@@H]2Oc3ccc(NS(=O)(=O)c4ccc(Cl)cc4)cc3C(=O)N([C@@H](C)CO)C[C@H]2C)cc1,i,i,i,i
C[C@@H]1CN([C@H](C)CO)C(=O)c2cc(NC(=O)c3ccncc3)ccc2O[C@@H](C)CCCCO[C@H]1CN(C)Cc1ccncc1,i,i,i,i
C[C@H]1CN([C@@H](C)CO)C(=O)CCCn2cc(nn2)CO[C@@H]1CN(C)Cc1cccc(O)c1,i,i,/,i
CCN(CC)CCCC(C)Nc1nc(C)cc(Nc2ccc3nc(C)cc(N)c3c2)n1 (stereo not drawn),i,i,i,i
COc1cc(CC2COC(c3ccc(O)c(OC)c3)C2COC2OC(CO)C(O)C(O)C2O)ccc1O (stereo not drawn),i,i,/,i
Cc1cc(NC(=O)c2nn3cccnc3c2Cl)no1,i,i,i,i
CNC[C@H]1Oc2ccc(NC(=O)CCN3CCOCC3)cc2CC(=O)N([C@@H](C)CO)C[C@H]1C,i,i,i,i
O=C(CCCCCCC(=O)NOCc1ccccc1)NO,i,i,i,i
COc1ccc(S(=O)(=O)N(C)C[C@@H]2Oc3ccc(NC(=O)c4ccncc4)cc3C(=O)N([C@H](C)CO)C[C@H]2C)cc1,i,i,i,i
CC(C)NC(=O)N(C)C[C@H]1Oc2ccc(N(C)C)cc2CC(=O)N([C@H](C)CO)C[C@H]1C,i,i,i,i
O=C(CSc1n[nH]c(-c2ccccc2)n1)Nc1ccccc1Cl,i,i,i,i
C[C@H]1CN([C@@H](C)CO)C(=O)Cc2cc(NC(=O)Cc3cn(C)c4ccccc34)ccc2O[C@H]1CN(C)S(=O)(=O)c1cccs1,i,i,i,i
CCc1cccc(NC(=O)O[C@H]2[C@H](OC(=O)Nc3ccc4c(c3)OCO4)[C@@H](OC(=O)Nc3ccc4c(c3)OCO4)[C@@H](OC)O[C@@H]2CO)c1,i,i,/,i
C[C@H](CO)N1C[C@H](C)[C@@H](CN(C)S(=O)(=O)c2cccs2)Oc2ccc(NS(=O)(=O)c3ccccc3)cc2CC1=O,i,i,i,i
COc1ccccc1S(=O)(=O)N(C)C[C@@H]1OCc2cnnn2CCCC(=O)N([C@@H](C)CO)C[C@@H]1C,i,i,i,i
Cc1ccc(S(=O)(=O)Nc2ccc3c(c2)CC(=O)N([C@H](C)CO)C[C@H](C)[C@@H](CN(C)Cc2ccncc2)O3)cc1,i,i,i,i
Cc1noc(C)c1S(=O)(=O)Nc1ccc2c(c1)C(=O)N([C@@H](C)CO)C[C@@H](C)[C@@H](CN(C)C(=O)Nc1ccc(F)cc1)O2,i,i,i,i
C[C@@H]1CN([C@H](C)CO)C(=O)c2cccc(NS(=O)(=O)c3ccccc3)c2O[C@@H]1CN(C)C,i,i,i,i
O=C(NCc1nc2ccccc2[nH]1)C1=C[C@@H](c2ccc(C(F)(F)F)cc2)C[C@@H](OCc2ccc(CO)cc2)O1,i,i,i,i
C=C(C(=O)O[C@H]1C/C=C(/C)C[C@H](O)[C@H]2[C@H](C)C(=O)O[C@@H]2/C=C\1C)[C@@H]1CCC(=C)[C@@H]2C[C@H](O[C@@H]3O[C@H](CO[C@H]4OC[C@](O)(CO)[C@H]4O)[C@@H](O)[C@H](O)[C@H]3O)C(=C)[C@@H]2C1,i,i,/,i
C[C@H](CO)N1C[C@H](C)[C@H](CN(C)S(=O)(=O)c2ccc(Cl)cc2)Oc2ccc(NS(=O)(=O)c3cn(C)cn3)cc2CC1=O,i,i,i,i
Cc1ccc(N(C(C)C(=O)Nc2cccc(C)c2C)S(C)(=O)=O)cc1 (stereo not drawn),i,i,i,i
Cc1sc2nc(SCC(=O)O)n(-c3ccc(Cl)c(Cl)c3)c(=O)c2c1C,i,i,i,i
C[C@H]1CN([C@@H](C)CO)C(=O)c2cccc(NS(=O)(=O)c3cn(C)cn3)c2O[C@@H]1CN(C)Cc1ccc(C(F)(F)F)cc1,i,i,i,i
Cc1cccc(NC(=O)CSc2n[nH]c(-c3ccccc3)n2)c1,i,i,i,i
O=C(CCc1ccccc1)Nc1ccccc1C(=O)N1CCOCC1,i,i,i,i
CS(=O)(=O)N(CC(=O)Nc1ccccc1C(=O)O)c1ccc(F)cc1,i,i,i,i
C[C@@H]1CCCCO[C@@H](CN(C)C(=O)Cc2ccccc2)[C@H](C)CN([C@@H](C)CO)C(=O)c2cc(NS(C)(=O)=O)ccc2O1,i,i,i,i
C[C@@H]1CN([C@H](C)CO)C(=O)Cc2cc(NC(=O)NC3CCCCC3)ccc2O[C@@H]1CN(C)S(=O)(=O)c1ccc(Cl)cc1,i,i,i,i
C[C@H]1CN([C@@H](C)CO)C(=O)c2cccc(NC(=O)Nc3ccccc3)c2O[C@@H]1CN(C)Cc1ccc(C(F)(F)F)cc1,i,i,/,i
COc1ccc(S(=O)(=O)Nc2ccc3c(c2)C(=O)N([C@@H](C)CO)C[C@H](C)[C@@H](CN(C)CC2CC2)O3)cc1,i,i,i,i
CN1CCc2nc(SCC(=O)Nc3ccc(C(C)(C)C)cc3)c(C#N)cc2C1,i,i,i,i
CC(=O)n1cc([C@@H]2C=C(C(N)=O)O[C@H](OCCCCO)C2)c2ccccc21,i,i,i,i
O=C(CSc1nc(-c2ccccc2)cc(-c2ccccc2)n1)Nc1cccc([N+](=O)[O-])c1,i,i,i,i
C[C@@H]1CCCCO[C@@H](CN(C)C)[C@H](C)CN([C@H](C)CO)C(=O)c2cc(NC(=O)Nc3ccc(C(F)(F)F)cc3)ccc2O1,i,i,i,i
Nc1nc(SCc2ccc3c(c2)OCCO3)n[nH]1,i,i,i,i
